# MT1-MMP act inh: blockers of MT1-MMP proenzyme processing, primary screen, HT1080 RFP-PRO-GFP cells, GFP/RFP fluorescence; Matrix metalloproteinase-14 (Homo sapiens), P50281; GFP/RFP ratio fluorescence, overnight; percent of plate control window, DMSO zero; GFP/RFP ratio change, % at 20 µM; 360,000 tested, 0.061% active; AID 651647, 2012;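 active = GFP/RFP ratio change of at least 30% with cell ATP level not reduced by more than half and red fluorescence within 50% of control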; note: strong numbers were not always called active
#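 Assay system: HT1080 cells carrying an RFP-PRO-GFP reporter | Dosing: Single dose of 20 µM compound, 1% DMSO final | Incubation: Cells overnight before dosing, compound overnight, 37 °C, 5% CO2 | Evaluation: GFP/RFP fluorescence ratio | Control set: DMSO and RFP-L50D-GFP cell wells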
# eIF4H inh: human eIF4H binding inhibitors, primary screen, translation initiation inhibitor project, biochemical, uHTS, fluorescence polarization. 290,000 tested, 0.94% active. AID 2012, 2009. eIF4H fluorescence polarization binding assay. inhibition, % at 35 µM. Eukaryotic translation initiation factor 4H (Homo sapiens), Q15056;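 active = 50% or more with normal probe brightness, or confirmed in later tests; inconclusive = above 50% with abnormal brightness, or retests that disagree; inactive = below 50% or failed in later tests; about a fifth of its hits are not listed in these tables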;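 note: calls also rest on retests at 20 µM and on dose response follow-up; 0% = protein and probe with vehicle and 100% = probe without protein; strong numbers were not always called active; many hits fall short of the cut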
# CSC inhib: cancer stem cell viability inhibitors, primary screen, luminescence; cancer stem cell-like cells viability; inhibition, % at 7.5 µM; 300,000 tested, 1.1% active;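 active = mean at 75% or more and at least half the replicates too; inconclusive = mean and replicates disagree; tested in HMLE shEcad cells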;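 note: 0% = median of negative and 100% = median of positive control wells; the first replicate is given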
# Rce1 inh: yeast Rce1p protease inhibitors, primary screen, biochemical, fluorescence, cell-free homogeneous; CAAX prenyl protease 2 (Saccharomyces cerevisiae (strain ATCC 204508 / S288c)), Q03530; 290,000 tested, 0.27% active; calls only; yeast membranes, quenched prenylated peptide cleavage fluorescence; AID 2563, 2010;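 active = fall in fluorescence gain of 50% or more versus controls, with final raw signal at or below 3038400; inconclusive = same 50% fall but final raw signal above 3038400; inactive = fall in fluorescence gain under 50%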;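 note: plate controls were neutral control wells for no effect and wells lacking membranes for full effect; tested at 10 µM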
# UUG fidelity: modulators of yeast start codon fidelity, primary screen, whole organism, S. cerevisiae, single point, plate reader. S. cerevisiae UUG-firefly luciferase reporter, luminescence/redox ratio. activity score, % at 18.7 µM. 350,000 tested, 0.13% active. AID 602363, 2012;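 active = replicate mean at a twofold rise or more, about +100% in these data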;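 note: firefly luciferase made from a UUG start codon reports start codon fidelity; reporter light over untreated wells divided by growth signal over untreated wells; some hits fall short of that in this replicate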
# Env fusion inh: inhibitors of HIV-1 Env-driven cell-cell fusion, primary screen, HeLa-JRFL effector, CEM21 target cells, luciferase; inhibition, % at 12.3 µM; 360,000 tested, 1.1% active;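 active = mean replicate inhibition score of at least 50 and every replicate individually at or above 50; inconclusive = only one of the two criteria met; inactive = mean below 50 and not all replicates reaching 50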;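 note: 0% = plate neutral controls and 100% = maraviroc near 300 nM; one replicate is shown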
# PABP polyA inh: PABP poly(A) RNA binding inhibitors, primary screen, biochemical, fluorescence polarization, uHTS. inhibition, % at 35 µM. 290,000 tested, 1% active. Polyadenylate-binding protein 1 (Homo sapiens), P11940;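 active = 50% or more with normal probe brightness, or confirmed in later tests; inconclusive = above 50% with abnormal brightness, or retests that disagree; inactive = below 50% or failed in later tests; about a fifth of its hits are not listed in these tables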;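 note: calls also rest on retests at 20 µM and on dose response follow-up; controls were probe without protein and protein plus probe with vehicle; some compounds called inactive have numbers as strong as hits; many hits fall short of the cut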
# Target sequence (P11940 whole entry, looked up): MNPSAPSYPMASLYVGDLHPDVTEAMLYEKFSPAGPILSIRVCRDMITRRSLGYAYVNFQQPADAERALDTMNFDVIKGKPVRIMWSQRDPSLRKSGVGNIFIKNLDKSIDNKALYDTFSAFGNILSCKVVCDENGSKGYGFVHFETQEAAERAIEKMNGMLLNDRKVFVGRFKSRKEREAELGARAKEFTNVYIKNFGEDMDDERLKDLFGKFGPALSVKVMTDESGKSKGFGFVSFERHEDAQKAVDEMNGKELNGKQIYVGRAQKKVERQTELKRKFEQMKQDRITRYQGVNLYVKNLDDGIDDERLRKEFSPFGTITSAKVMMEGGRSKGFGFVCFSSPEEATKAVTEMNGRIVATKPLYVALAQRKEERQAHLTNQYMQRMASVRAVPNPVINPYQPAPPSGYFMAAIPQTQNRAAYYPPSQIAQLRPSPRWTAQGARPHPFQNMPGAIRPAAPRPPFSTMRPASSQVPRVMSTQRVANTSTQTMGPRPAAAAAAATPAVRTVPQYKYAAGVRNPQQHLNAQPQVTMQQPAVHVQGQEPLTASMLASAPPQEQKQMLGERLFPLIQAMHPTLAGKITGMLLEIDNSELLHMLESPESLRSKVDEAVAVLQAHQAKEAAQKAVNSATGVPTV
# MT1-MMP act inh RFP: also measured in MT1-MMP act inh; calls as there; RFP signal change, %; measured here: RFP expression control read;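 0 = vehicle wells; hits needed this value within 50% of zero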
# Numbers without * were called inactive; i = inactive; ? = inconclusive; / = no result given; + = active, no number.
item	Molecule	MT1-MMP act inh	MT1-MMP act inh RFP	eIF4H inh	CSC inhib
1	COc1ccccc1NC(=S)N=Nc1c(O)[nH]c2ccc(Br)cc12	16	0	7	?
2	CC1=NN(c2nc(-c3ccccc3)cs2)C(=O)C1N=Nc1ccccc1 (stereo unspecified)	6	-3	7	11
3	N#CCCN(C(=O)COC(=O)C1CCN(S(=O)(=O)c2cccs2)CC1)c1ccccc1	-3	1	0	-9
4	CCn1ncc(CNC(=O)C2(C)CC2(Br)Br)c1C (stereo unspecified)	1	2	-2	-6
5	CC(C)(O)C(=O)NNC(=S)Nc1cccc(C(F)(F)F)c1	3	1	0	-6
6	Cc1cc(NC(=O)CSc2nnc(-c3ccccc3)n2Cc2ccco2)no1	0	-2	0	-11
7	O=C(O)CN=C1NC2(CCCCC2)Cc2ccccc21	-4	5	7	/
8	Cc1cc(C(=O)NCC(=O)OCC(=O)NCCc2ccccc2)ccc1[N+](=O)[O-]	0	2	7	-12
9	CCc1ccccc1NS(=O)(=O)c1cc(C)ccc1OC	3	0	0	7
10	COCCSc1nnc(NC(=O)CSCc2ccccc2)s1	-2	2	-10	/
11	CCOC(=O)N1CCN(C(=O)CNC(=O)Cn2cnc3ccccc3c2=O)CC1	2	1	2	12
12	CN(C)c1nc(=Nc2cccc(Cl)c2)ss1	1	2	14	14
13	COc1cc(/C=c2\sc3nc(=O)c(-c4ccccc4)nn3c2=O)ccc1OCCC(C)C	-55	-38	10	-1
14	COc1ccc(S(=O)(=O)N/N=C(/C)c2ccncc2)cc1	0	-3	1	-2
15	COc1ccc(OC)c(-c2nc3c(C)n[nH]c(=O)c3[nH]2)c1	1	0	-11	-10

item	Rce1 inh	UUG fidelity	Env fusion inh	PABP polyA inh
1	i	-22	18	-3
2	i	-12	-2	-1
3	i	/	-16	?
4	i	/	-17	7
5	i	-28	8	-18
6	i	-17	11	4
7	i	/	-41	-7
8	i	/	-3	-8
9	i	2	/	-3
10	/	-1	/	2
11	i	-19	3	-6
12	i	-20	-22	5
13	/	-14	/	0
14	i	-8	-21	3
15	i	-4	-431	-4

# 3 structures from above, arranged by count of non-hydrogen atoms, ascending.
item	Molecule	MT1-MMP act inh	MT1-MMP act inh RFP	eIF4H inh	CSC inhib
5	CC(C)(O)C(=O)NNC(=S)Nc1cccc(C(F)(F)F)c1	3	1	0	-6
6	Cc1cc(NC(=O)CSc2nnc(-c3ccccc3)n2Cc2ccco2)no1	0	-2	0	-11
13	COc1cc(/C=c2\sc3nc(=O)c(-c4ccccc4)nn3c2=O)ccc1OCCC(C)C	-55	-38	10	-1

item	Rce1 inh	UUG fidelity	Env fusion inh	PABP polyA inh
5	i	-28	8	-18
6	i	-17	11	4
13	/	-14	/	0

# Next part.
item	Molecule	MT1-MMP act inh	MT1-MMP act inh RFP	eIF4H inh	CSC inhib
16	COc1cc(C(=O)c2ccccc2)c([N+](=O)[O-])cc1OC	-2	2	-5	-1
17	C#CCSc1nnc(-c2ccc(C)cc2)o1	-2	-8	-6	/
18	CCOc1cccc2cc(C(=O)Nc3nccs3)c(=O)oc12	-1	3	-4	-12
19	CCOc1cccc(-c2nnc3sc(C4CCCCC4)nn23)c1	-8	-8	-2	5
20	Cc1cccc(C)c1NC(=O)CN(C)C(=O)c1ccc(-n2cncn2)c([N+](=O)[O-])c1	8	6	/	-2
21	COC(=O)c1c(NC(=O)CC2SCC(C(=O)OC)NC2=O)sc2c1CCCC2 (stereo unspecified)	3	2	-4	-8
22	Cc1c(C2C(C#N)=C(N)N(c3ccccc3C#N)C3=C2C(=O)CCC3)cnn1C (stereo unspecified)	-3	5	15	-8
23	COc1ccc(NC(=O)CCNS(=O)(=O)c2ccc(Br)s2)cc1	5	2	2	15
24	COc1cccc(CNc2nc3cc(-c4ccc(F)cc4)sc3c(=O)n2C)c1	11	-15	/	/
25	Cn1c(N)c(C(=O)COC(=O)C2CCCCC2)c(=O)n(C)c1=O	-2	1	-10	-2
26	Cc1ccc(C)n1NC(=O)c1ccccc1[N+](=O)[O-]	2	4	-7	-10
27	Cc1ccc(-c2ccc(=O)n(CC(=O)NCC3COCCO3)n2)cc1 (stereo unspecified)	2	1	-7	/
28	CC(C)c1ccc(S(=O)(=O)N2CCN(C(=O)CN3C(=O)NC4(CCCC4)C3=O)CC2)cc1	-1	2	-10	-1
29	CCOC(=O)C1=CN(Cc2cccc(Br)c2)S(=O)(=O)N(C)C1C (stereo unspecified)	-1	-9	/	/
30	CC(=O)NC1C(=O)N(CCc2ccccc2)c2ccc(Br)cc21 (stereo unspecified)	6	2	1	/

item	Rce1 inh	UUG fidelity	Env fusion inh	PABP polyA inh
16	i	3	4	1
17	i	-10	-91	0
18	i	5	-21	5
19	i	-12	96*	-4
20	i	-15	-6	/
21	i	16	17	4
22	i	/	-10	8
23	i	17	/	4
24	/	-12	31	/
25	i	-22	/	8
26	i	/	-29	-6
27	i	-12	22	3
28	i	6	-5	0
29	/	-15	15	/
30	/	-16	/	7

# Continuation:
item	Molecule	MT1-MMP act inh	MT1-MMP act inh RFP	eIF4H inh	CSC inhib
31	COc1ccc(-c2cc(C(=O)OCc3ccccn3)c3ccccc3n2)cc1	0	0	-13	-2
32	CN(C)S(=O)(=O)c1cccc(NC(=O)COC(=O)c2cccnc2Cl)c1	0	1	/	-12
33	Cc1ccc2c(c1)c1c(n2CCc2ccc(C)nc2)CCN(C)C1	-7	-5	/	6
34	O=C1C=CC(=O)N1	0	-4	/	0
35	CCCCCC(=O)Nc1cccc(C2=NOC3(C2)C[C@@H](C(N)=O)N(C(=O)c2ccc(OC)cc2)C3)c1 (stereo partly specified)	2	5	0	20
36	COc1ccc(Cn2c(C)c(C)c(C#N)c2NC(=O)Nc2ccc(F)cc2)cc1	4	1	2	/
37	C#CCn1c(-c2cccs2)nc2ccccc21	-5	-3	1	1
38	CCCCC(=O)Oc1c(S(=O)(=O)c2ccc(C)cc2)c(C)nn1C(C)(C)C	-2	4	-1	18
39	COc1ccc(C2=CC(=O)C[C@H](c3ccc(OC)cc3)C2)cc1	4	-3	/	1
40	O=C(NC1CCCC1)C(c1ccccc1)N(C(=O)c1csnn1)c1ccccc1F (stereo unspecified)	-2	5	4	-4
41	CCOc1ccc(N(CC)S(=O)(=O)c2ccc3c(c2)n(C)c(=O)c(=O)n3C)cc1	1	2	2	/
42	Cc1cc(C)n(-c2nnc(C)n2/N=C/c2ccc(O)cc2)n1	2	1	4	/
43	Cc1nn(-c2ccccc2)c(C)c1C(=O)OCC(=O)Nc1ccccc1F	-1	-3	/	/
44	N=c1c(C(=O)NCc2ccc(F)cc2)cc2c(=O)n3ccccc3nc2n1Cc1cccnc1	-13	-5	30	-3
45	CC(C)N1CCC(C)(C(=O)Nc2ccc(-n3cccc3)cc2)C1 (stereo unspecified)	0	5	/	/

item	Rce1 inh	UUG fidelity	Env fusion inh	PABP polyA inh
31	i	2	-3	7
32	/	-14	5	/
33	/	-10	6	/
34	/	-21	8	/
35	i	4	1	-2
36	i	-13	-61	4
37	i	-7	-3	-2
38	i	-3	-8	-11
39	/	-11	-48	/
40	i	-12	18	-1
41	i	-6	-70	1
42	i	/	-23	-4
43	/	-30	-74	/
44	+	-14	-42	14
45	/	-6	5	/

# (more compounds)
item	Molecule	MT1-MMP act inh	MT1-MMP act inh RFP	eIF4H inh	CSC inhib
46	CS(=O)(=O)N(CC(=O)Nc1cccc([N+](=O)[O-])c1)c1ccccc1	-1	-3	-10	-1
47	CC1CCCN(C(=O)C2CCN(c3ncnc4c3nc3n4CCCCC3)CC2)C1 (stereo unspecified)	0	-3	-16	-17
48	C/C(=C1/SC(N2CCOCC2)=NC1=O)c1ccc(Cl)cc1	-1	0	-4	2
49	CN(C)Cc1c(O)ccc2c(=O)c(-c3ccccc3Cl)coc12	-2	-1	8	-5
50	O=c1[nH]c(SCc2ccc(Cl)cc2)nc2ccccc12	4	6	-2	-2
51	O=C(CCC(=O)N(CC(=O)NC1CCCCC1)Cc1cccs1)Nc1nccs1	7	-2	-2	-32
52	CCN(c1ccccc1)S(=O)(=O)c1ccc(C(=O)NC2CCCCC2)cc1	0	-3	/	/
53	CC1CCc2c(sc(NC(=O)C(=O)NCc3ccco3)c2C#N)C1 (stereo unspecified)	-2	-1	1	3
54	Cc1noc(NS(=O)(=O)c2ccc(N/C=C/C(=O)c3ccccc3)cc2)c1C	0	3	3	-7
55	CCCc1cc(=O)[nH]c(SCC(=O)Nc2ccc(OC)c(S(=O)(=O)N3CCCCC3)c2)n1	-1	-3	/	8
56	Cc1ccc(-c2nc3ccc(Cl)cn3c2Cc2ccsc2)cc1	-2	7	/	/
57	Cc1ccc(C)c(C(=O)COC(=O)Cn2[nH]c(=O)c3ccccc3c2=O)c1	1	6	/	-5
58	CCC(COC)NC(=O)CCc1nnc(Cc2c[nH]c3ccccc23)o1 (stereo unspecified)	-1	0	-2	-9
59	COc1ccc(OC)c(NC(=O)c2ccc(Cl)cc2)c1	10	5	-2	-6
60	Cc1nc(N2CCOCC2)c2c(C)c(C(=O)Nc3ccc(C(F)(F)F)cc3)sc2n1	7	-7	2	54

item	Rce1 inh	UUG fidelity	Env fusion inh	PABP polyA inh
46	i	/	2	0
47	i	0	0	6
48	i	-28	/	7
49	/	-4	4	2
50	i	/	-8	4
51	i	-26	17	3
52	/	-3	-22	/
53	i	-7	/	16
54	i	-10	7	2
55	/	12	13	/
56	/	-25	-107	/
57	/	-14	/	/
58	i	-9	-8	-3
59	i	/	-8	-2
60	+	-15	2	5

# Printed as active in Rce1 inh, among the entries above:
entry | SMILES | MT1-MMP act inh | MT1-MMP act inh RFP | Rce1 inh | UUG fidelity | Env fusion inh
44 | N=c1c(C(=O)NCc2ccc(F)cc2)cc2c(=O)n3ccccc3nc2n1Cc1cccnc1 | -13 | -5 | + | -14 | -42
60 | Cc1nc(N2CCOCC2)c2c(C)c(C(=O)Nc3ccc(C(F)(F)F)cc3)sc2n1 | 7 | -7 | + | -15 | 2

# Going on with the list:
item	Molecule	MT1-MMP act inh	MT1-MMP act inh RFP	eIF4H inh	CSC inhib
61	CCOc1ccc(CCNC(=O)c2c(C)noc2C)cc1OCC	4	1	/	/
62	Cn1cc(/C=N/n2cnc3scc(-c4ccc(Cl)cc4)c3c2=O)c2ccccc21	13	-21	-8	55
63	COc1c(Cl)cc(-c2noc(C)c2C(=O)NCc2ccc3c(c2)OCO3)cc1Cl	-1	1	-8	12
64	CC(C)N(C(=O)[C@H]1CC(CC(=O)NCCCn2ccnc2)C(=O)N2CCc3c([nH]c4ccccc34)[C@]12C)C(C)C (stereo partly specified)	/	/	/	3
65	CSc1cc(-c2ccc(Cl)cc2)c(C(=O)NN)s1	21	8	0	29

item	Rce1 inh	UUG fidelity	Env fusion inh	PABP polyA inh
61	i	-19	-2	/
62	i	15	-275	-11
63	i	-4	-2	4
64	/	-11	-13	/
65	i	-7	-8	2

# Screening data: PubChem, several laboratories

# Compounds as they come; overall some 2.9% were active at least once.
